Screening results deposited in PubChem by several laboratories.
Autofluor counter: flagged as autofluorescent in microsphere protease counterscreen; AID 624483; fluorescence intensity (no concentration beside the values); compound autofluorescence counterscreen, microsphere flow cytometry; active compounds read high; actives 3.1% (n = 360,000);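 active = at least 3 SD above the mean of all compounds, about 16000 in these data; inconclusive = too few beads counted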;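 note: 100 nL of 1 mM stock went into each well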
Mtb hypoxia inh: reduces hypoxia-regulated biosensor signal in M. tuberculosis | M. tuberculosis hypoxia-regulated fluorescent reporter, fluorescence | fluorescence inhibition, % (no concentration beside the values) | actives 0.1% (n = 300,000) | AID 1159583;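 active = 35 to 45% if threefold the growth effect, above 45% if 1.5-fold the growth effect; inactive = the rest, general growth blockers included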;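 note: wells of about 50 µL received 100 nL stock; 0% = vehicle wells and 100% = reference inhibitor wells; whole bacteria with a GFP reporter of the hypoxia response; strong numbers were not always called active; many hits fall short of the cut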
Sa RN4220 lethal: S. aureus RN4220 growth inhibition | OD600, 16 h | inhibition, % (no concentration beside the values) | AID 1259311 | actives 0.33% (n = 330,000);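 active = z-score of -3 or lower and OD600 up to 0.18 on both plates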;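 note: plate controls were untreated cells for no effect and reference antibiotic for full effect; stock transfer was 100 nL into about 80 µL; one replicate is shown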
PrP UTR inh: suppresses PrP 5' UTR mRNA reporter expression | inhibition, % (test concentration not listed) | cell-based PrP 5' UTR mRNA reporter, plate reader | actives 0.35% (n = 340,000) | AID 488862;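 active = every replicate at 50% or more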;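 note: 0 = median of the neutral control wells; tested in H4 reporter cells; numbers are from one replicate; inactives centre near -14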
BJeLR viability: BJeLR cell viability loss; AID 1554; BJeLR (HRASV12) viability, CellTiter-Glo ATP luminescence, 48 h; reference of the scale not given here; actives 0.17% (n = 300,000); inhibition, % (no concentration beside the values);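 active = replicate mean above 50%; inconclusive = above 50% but judged a plate artefact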;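 note: 50 nL library stock added to about 25 µL; numbers are from one replicate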
ugtP null kill: compounds lethal to S. aureus RN4220 ugtP deletion mutant. OD600 growth, 16 h; some inactives read as strong as hits. growth inhibition, % (no concentration beside the values). actives 0.54% (n = 330,000);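 active = z-score under -3 and OD600 up to 0.15 on both plates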;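 note: plate controls were untreated wells for no effect and antibiotic for full effect; wells of about 80 µL received 100 nL stock; the first replicate is given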
Mtb hypoxia inh growth: recorded beside Mtb hypoxia inh, whose call it bears; growth inhibition, %; measured here: M. tuberculosis growth (absorbance);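 0% = vehicle and 100% = reference antibiotic; read after six days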
* = called active by the depositor; ? = inconclusive; . = no result given; & = joins results of further samples. Rows are unselected; overall some 4% were active at least once.

Second line of a record: Sa RN4220 lethal	BJeLR viability	PrP UTR inh	Autofluor counter	Mtb hypoxia inh growth	Mtb hypoxia inh	ugtP null kill
1	COc1ccc(NC2CCCN(C(=O)CCn3cccn3)C2)cc1 (configuration not stated)
  2.9	3	1	6077	3	12	6
2	CCOc1ccccc1NC(=O)C1CCCN(S(=O)(=O)c2c(C)[nH]c(=O)[nH]c2=O)C1 (configuration not stated)
  2.9	8	0	2458	.	.	2
3	C=CCNC(=O)COc1cc(C)ccc1C
  11	3	-11	2014	8	12	8
4	COc1ccc(-c2nc3ncccc3n2O)cc1
  6.0	-7	-18	2819	2	12	7
5	COc1cccc(C(=O)Nc2ccc(C3CC3(Cl)Cl)cc2)c1 (configuration not stated)
  2.9	5	-108	2788	1	-5	11
6	C/C(=C\c1ccccc1)CN1CCC(C(=O)N2CCCCC2)CC1
  5.4	8	-35	2636	5	14	-1
7	CC(C)CC1NC(=O)N(CC(=O)Nc2ccc(OC(F)F)cc2)C1=O (configuration not stated)
  3.1	.	-8	3996	0	-5	1
8	CC1(C)c2ccccc2-c2nc3ccccc3cc2C1N1CCOCC1 (configuration not stated)
  1.3	.	-11	2907	5	10	33
9	CN1CCC(n2nccc2N)CC1
  1.1	-1	-4	4630	.	.	1
10	Cc1ccc(OCC(=O)N2CC(C)CC(C)C2)c([N+](=O)[O-])n1 (configuration not stated)
  4.0	.	-27	3617	7	18	3
11	Cc1ccc(S(=O)(=O)Nc2nc(-c3ccc(F)cc3)cs2)cc1
  2.8	-14	-22	3309	1	1	25
12	Cc1cc(C)c2c(N)c(C(=O)c3ccc(Cl)c(Cl)c3)sc2n1
  1.4	10	-22	3449	14	5	-3
13	CC(=O)Nc1ncc(Cc2cccc(Cl)c2Cl)s1
  2.1	-11	-3	2561	11	9	-1
14	O=C(COc1ncnc2ccccc12)NC1CCCCC1
  -3.5	.	5	.	-1	4	-5
15	CCN(C[C@H]1N[C@@](C)(C(=O)OC)[C@H]2C(=O)N(Cc3ccccc3)C(=O)[C@@H]12)C(=O)c1ccc(C)cc1
  0.2	.	-12	3797	2	-1	0
16	Cc1nc(N)c(Cc2ccc(Cl)cc2Cl)c(N)n1
  11	0	-16	5039	-12	-5	-4
17	N#CC[C@H](Cc1ccccc1)N1CC[C@@H](O)CCC1=O
  .	-7	-16	3960	.	.	.
18	CN(CC(=O)Nc1ccccc1C(F)(F)F)C(=O)COc1ncnc2ccccc12
  3.3	-2	-16	4066	3	7	6
19	O=C(O)C1CCCN1S(=O)(=O)c1cccc(S(=O)(=O)N2CCCC2C(=O)O)c1 (configuration not stated)
  8.2&4.7	4	-5	3933	3&12	1&17	2&-6
20	CCOc1ccc(-c2cnc3n2CCCCC3)cc1
  -0.1	-9	-18	3249	9	6	10
21	CC(=O)c1cc(F)ccc1OCC(=O)N1CCCc2ccccc21
  2.8	3	-34	3361	3	5	-2
22	COCCCN1C(=O)C(=O)/C(=C(/O)c2ccc(S(=O)(=O)N3CCCCC3)cc2)C1c1cccc(OC)c1 (configuration not stated)
  1.0	-3	-20	4230	7	-2	-2
23	NS(=O)(=O)c1ccc(NC(=O)COC(=O)c2c3c(nc4ccccc24)/C(=C\c2ccc4c(c2)OCO4)CCC3)cc1
  -3.6	.	-11	2163	1	9	21
24	Cc1ccc(C(=O)NCCc2ccc(S(=O)(=O)N3CCCC3)cc2)cc1
  5.0	6	-40	4678	3	3	-3
25	Cc1ccc(C(=O)COC(=O)CCN2C(=O)C3C4C=CC(C5CC45)C3C2=O)cc1 (configuration not stated)
  3.1	-3	-15	4166	1	4	8
26	Cc1cc(C(=O)Nc2ccc3c(c2)CCC3)c2ccccc2n1
  4.0	-4	-24	4356	2	15	1
27	Cc1cc(C)cc(OCC(=O)OCC(=O)Nc2cc(S(=O)(=O)N3CCOCC3)ccc2Cl)c1
  3.1	.	-18	6376	6	7	9
28	N/C(=N\[N+](=O)[O-])NCCCC(NC(=O)CNC(=O)c1ccccc1)C(=O)O (configuration not stated)
  .	3	-22	4216	.	.	.
29	O=C(CN(CC1CCCO1)C(=O)CNS(=O)(=O)c1ccc(F)cc1)NCc1ccc(F)cc1 (configuration not stated)
  4.4	-11	-16	2928	-3	8	5
30	O=C(O)c1ccc(-c2nc(-c3ccc(Cl)cc3)cs2)cc1
  3.6	-1	-119	2179	12	0	12
31	C=CCOn1c(=O)c(-c2cccs2)[n+]([O-])c2ccccc21
  -4.8	-4	-29	21222*	11	2	-20
32	CC1CN(C(C)CO)C(=O)c2cc(NC(=O)Nc3ccccc3)ccc2OC1CN(C)S(=O)(=O)c1cn(C)cn1 (configuration not stated)
  6.8	.	.	.	4	2	-1
33	O=C(Nc1ccc(S(=O)(=O)N2CCCCCC2)cc1)c1[nH]ncc1[N+](=O)[O-]
  .	7	37	5601	.	.	.
34	Cc1ccccc1C=Nn1c(-c2cc(-c3ccccc3)n[nH]2)n[nH]c1=S
  2.2	.	.	.	10	12	-14
35	CCn1c(C2CCN(S(=O)(=O)c3ccc(OC)cc3)CC2)n[nH]c1=S
  6.3	-4	-20	4796	5	2	15
36	C=CCN=C1SCC(=O)N1S(=O)(=O)c1ccc(C)cc1
  2.9	-3	-19	8139	6	4	-7
37	CCN1CC2C3C(=O)N(C)C(=O)C3[C@](Cc3ccccc3)(C1=O)N2C(=O)c1ccc(C)cc1 (some centres not stated)
  2.4	.	.	.	13	7	3
38	CC1(C)CC(=O)C2=C(C1)N(c1ccccc1)C(N)=C(C#N)C2c1ccccc1 (configuration not stated)
  2.7	-15	-5	3392	2	5	1
39	CCOc1ccc(/C=N/n2c(C)nnc2C)cc1OC
  .	0	-14	4259	.	.	.
40	CC(=O)c1cccc(NS(=O)(=O)c2c(C)n[nH]c2C)c1
  -1.1	-2	-3	2880	.	.	13
41	CN1C(=O)C2(C(C#N)=C(N)N(c3ccc(Cl)cc3)C3=C2C(=O)CC(C)(C)C3)c2ccccc21 (configuration not stated)
  -11	-1	-20	2422	5	13	-1
42	CCCc1nn(CCc2ccccn2)c(N)c1CC
  2.0	3	-29	?	-2	14	-2
43	O=C(/C=C/Sc1ccc(C(F)(F)F)cn1)c1ccccc1
  5.0	-1	-11	5911	9	2	8
44	Cc1[nH]n(-c2ccccc2)c(=O)c1C(=O)c1ccccc1
  20	7	-13	3608	20	13	-1
45	COc1cccc(COc2ncnc3sccc23)c1
  -4.3	4	-6	4622	9	-6	-2
46	Cc1cc([N+](=O)[O-])c2c(c1C)C1C=CCC1C(c1ccccn1)N2 (configuration not stated)
  12	22	.	.	2	8	9
47	Cc1ccc(S(=O)(=O)N2CCN(C3CC(=O)N(CCc4ccccc4)C3=O)CC2)cc1C (configuration not stated)
  4.2	4	.	9886	6	7	-6
48	OCCNc1nc(Nc2ccc(Cl)c(Cl)c2)nc2ccccc12
  -3.4	1	-19	3888	-7	-15	-40
49	O=C(CSc1cccc[n+]1[O-])Nc1cc2c(cc1Cl)C(=O)c1ccccc1C2=O
  21	-6	-71	2306	4	-12	6
50	CC(C)N(C(=O)CSc1ccc(S(=O)(=O)N2CCCCC2)cn1)c1ccccc1
  6.0	.	-16	3745	9	16	4
51	COc1cccc(CN2CC(C(=O)N3CCCCCC3)CCC2=O)c1 (configuration not stated)
  -1.1	1	-1	6404	6	1	7
52	O=C(Nc1ccc(S(=O)(=O)Nc2ncccn2)cc1)c1cccc(S(=O)(=O)N2CCCC2)c1
  3.4	0	-6	4403	30	18	-1
53	COc1ccc2c(c1)c(C(O)CN1CCC(Cc3ccccc3)CC1)c(C)n2C (configuration not stated)
  5.0	-22	-8	3525	20	-5	-3
54	Cc1cc(NCc2ccc(F)cc2)nc2cc(Cl)ccc12
  -3.1	3	-59	4654	2	1	-6
55	COC(=O)CCC(=O)OC1(C)C(=O)C=C2C=C(C3CC3)N(c3cccc(C#N)c3)C=C2C1=O (configuration not stated)
  4.5	1	7	3932	-2	5	2
56	COc1ccc(NC(=O)NCCN2CCN(c3cccc(Cl)c3)CC2)cc1
  -7.5	0	-13	6346	12	6	10
57	O=C(Nc1ccccn1)c1cc2ccccc2o1
  2.8	32	59*	7858	-4	1	-3
58	CC(C)c1onc(C(=O)N2CCOCC2)c1[N+](=O)[O-]
  5.2	-1	-9	2551	0	20	9
59	C#CCNC(=O)C1=C[C@@H](c2ccc(Br)cc2)[C@H](CCCO)[C@@H](OCC)O1
  .	5	-16	3884	.	.	.
60	COC(=O)c1ccc(C2SCC(=O)N2Cc2ccccc2)cc1 (configuration not stated)
  5.5	3	-20	3668	-1	5	11

Single records (already shown). Order of values: Sa RN4220 lethal | BJeLR viability | PrP UTR inh | Autofluor counter | Mtb hypoxia inh growth | Mtb hypoxia inh | ugtP null kill
Record of `CC1CN(C(C)CO)C(=O)c2cc(NC(=O)Nc3ccccc3)ccc2OC1CN(C)S(=O)(=O)c1cn(C)cn1` (configuration not stated) : 6.8 | . | . | . | 4 | 2 | -1
Record of `O=C(CSc1cccc[n+]1[O-])Nc1cc2c(cc1Cl)C(=O)c1ccccc1C2=O` : 21 | -6 | -71 | 2306 | 4 | -12 | 6

(listing goes on)
Second line of a record: Sa RN4220 lethal	BJeLR viability	PrP UTR inh	Autofluor counter	Mtb hypoxia inh growth	Mtb hypoxia inh	ugtP null kill
61	O=C(O)CSCc1ccc(Cl)cc1
  0.0	-4	-7	3558	1	8	10
62	COCCN(C(=O)CC(C)(C)C)c1nnc(-c2cccnc2)s1
  6.8	-4	-23	2496	7	2	2
63	CCOC(=O)c1cccc(NC(=O)CSc2nnc(C3CCCCC3)n2CC)c1
  7.9	8	-10	3277	6	2	-1
64	O=C(Nc1ccccc1OC(F)F)c1ccccc1
  1.1	-13	-4	8328	6	11	0
65	FC(F)(F)c1nnc(-c2ccccc2)nc1Oc1ccccc1
  0.1	-1	-26	5844	13	3	5
66	COc1ccc(O)c(CN2CCCC(C(=O)Nc3cccc(-n4cccn4)c3)C2)c1 (configuration not stated)
  1.3	0	-8	5284	0	4	5
67	O=C(NNS(=O)(=O)c1ccc(Cl)cc1)C1CCN(Cc2ccccc2)CC1
  5.3	-16	-22	9586	9	12	-1
68	O=C(Oc1cccc(NC(=O)c2ccco2)c1)c1cccc(S(=O)(=O)N2CCCC2)c1
  2.6	4	-16	?	-1	5	3
69	S=C(NCCCN1CCOCC1)N1CCN(c2nc(-c3ccc(Cl)cc3)cs2)CC1
  -8.2	2	-9	2162	0	7	-3
70	COc1ccc(C(=O)N2c3ccc(F)cc3CCC2C)cc1OC (configuration not stated)
  7.9	-1	-21	3179	.	.	9
71	Cc1cccc(C(=O)OCC(=O)c2c(C)[nH]c3ccccc23)c1O
  -0.9	.	-57	4168	46	19	-7
72	Oc1cccc(CN2CCOCC2)c1O
  2.6	.	-21	3680	12	8	1
73	Cn1c(=O)c2c(n(Cc3ccccc3)c1=O)NC(=O)C2CC(=O)N1CCc2ccccc2C1 (configuration not stated)
  -13	.	-21	3097	-5	-5	-5
74	CCOC(=O)NCc1ccc2c(c1)OCO2
  2.0	3	-32	4232	.	.	3
75	COc1ccc(-c2[nH]nc3oc(=O)cc(C)c23)cc1
  -0.5	-3	-25	2968	.	.	11
